Rce1 inh: inhibitors of yeast Ras-converting enzyme | Q03530 | yeast membranes, quenched prenylated peptide cleavage fluorescence | calls only | 290,000 tested, 0.27% active;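 active means fall in fluorescence gain of 50% or more versus controls, with final raw signal at or below 3038400; inconclusive means same 50% fall but final raw signal above 3038400; inactive means fall in fluorescence gain under 50%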;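 further: plate controls were neutral control wells for no effect and wells lacking membranes for full effect; tested at 10 µM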
Target sequence (Q03530 whole entry, looked up): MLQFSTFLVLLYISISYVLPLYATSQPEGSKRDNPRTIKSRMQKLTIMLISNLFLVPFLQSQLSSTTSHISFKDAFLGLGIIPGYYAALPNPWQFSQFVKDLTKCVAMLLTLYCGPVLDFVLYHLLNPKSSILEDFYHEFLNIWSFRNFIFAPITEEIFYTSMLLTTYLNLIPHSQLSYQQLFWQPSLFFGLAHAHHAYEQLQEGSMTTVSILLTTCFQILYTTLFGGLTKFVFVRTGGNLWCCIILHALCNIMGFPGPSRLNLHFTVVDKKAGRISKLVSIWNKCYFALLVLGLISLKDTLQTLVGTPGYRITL
PABP FP inh: PABP-poly(A) binding inhibition. PABP-poly(A) RNA binding, fluorescence polarization. AID 2014. 290,000 tested, 1% active. inhibition, % at 35 µM;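 active means 50% or more with normal probe brightness, or confirmed in later tests; inconclusive means above 50% with abnormal brightness, or retests that disagree; inactive means below 50% or failed in later tests; about a fifth of its hits are not listed in these tables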;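 further: calls also rest on retests at 20 µM and on dose response follow-up; controls were probe without protein and protein plus probe with vehicle; some compounds called inactive have numbers as strong as hits; many hits fall short of the cut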
HIV Env fusion: HIV envelope-mediated fusion inhibition | HeLa-JRFL Env/CEM21 cell fusion, luciferase | inhibition, % at 12.3 µM | 360,000 tested, 1.1% active | AID 651610;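 active means mean replicate inhibition score of at least 50 and every replicate individually at or above 50; inconclusive means only one of the two criteria met; inactive means mean below 50 and not all replicates reaching 50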;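 further: 0% = plate neutral controls and 100% = maraviroc near 300 nM; one replicate is shown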
MT1-MMP act inh: blocks activation of human MT1-MMP; P50281; HT1080 RFP-PRO-GFP cells, GFP/RFP ratio fluorescence, overnight; percent of plate control window, DMSO zero; GFP/RFP ratio change, % at 20 µM; 360,000 tested, 0.061% active; AID 651647;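 active means GFP/RFP ratio change of at least 30% with cell ATP level not reduced by more than half and red fluorescence within 50% of control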; further: strong numbers were not always called active
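Assay system – RFP-PRO-GFP reporter HT1080 cells · Compound dosing – single dose of 20 µM compound, 1% DMSO final · Incubation – overnight compound exposure at 37 °C · Measure – GFP/RFP fluorescence ratio · Benchmarks – DMSO wells and RFP-L50D-GFP cells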
eIF4H inh: inhibitors of RNA binding by human eIF4H; Q15056; eIF4H fluorescence polarization binding assay; inhibition, % at 35 µM; 290,000 tested, 0.94% active;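 active means 50% or more with normal probe brightness, or confirmed in later tests; inconclusive means above 50% with abnormal brightness, or retests that disagree; inactive means below 50% or failed in later tests; about a fifth of its hits are not listed in these tables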;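 further: calls also rest on retests at 20 µM and on dose response follow-up; 0% = protein and probe with vehicle and 100% = probe without protein; strong numbers were not always called active; many hits fall short of the cut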
CSC inhib: blocks cancer stem cells; cancer stem cell-like cells viability, luminescence; inhibition, % at 7.5 µM; 300,000 tested, 1.1% active; AID 2717;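 active means mean at 75% or more and at least half the replicates too; inconclusive means mean and replicates disagree; tested in HMLE shEcad cells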;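 further: 0% = median of negative and 100% = median of positive control wells; the first replicate is given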
Yeast UUG start: alters start codon recognition fidelity in yeast; activity score, % at 18.7 µM; S. cerevisiae UUG-firefly luciferase reporter, luminescence/redox ratio; 350,000 tested, 0.13% active;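 active means replicate mean at a twofold rise or more, about +100% in these data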;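 further: firefly luciferase made from a UUG start codon reports start codon fidelity; reporter light over untreated wells divided by growth signal over untreated wells; some hits fall short of that in this replicate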
eIF4H inh retest: also measured in eIF4H inh; calls as there; inhibition, %; compound at 20 µM; confirmation average;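 mean of two retest wells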
PABP FP inh retest: second read-out of PABP FP inh, no call of its own (marks repeat the call); inhibition, %; compound at 20 µM; confirmation repeats;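 mean of two retest wells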
MT1-MMP act inh RFP: further read-out of MT1-MMP act inh, marked with its call; RFP signal change, %; measured here: RFP expression control read;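 0 = vehicle wells; hits needed this value within 50% of zero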
Starred values were filed as active, the others as inactive; i = inactive; ? = inconclusive; · = not tested or not shown; & = joins results of further samples; [ ] = dose if it differs, or a comment. Rows are unselected; overall some 2.9% were active at least once.

SMILES | Rce1 inh | PABP FP inh | HIV Env fusion | MT1-MMP act inh | MT1-MMP act inh RFP | eIF4H inh | CSC inhib | Yeast UUG start | others
N#CCC(=O)Nc1ccc(C(=O)OCC(=O)NC(=O)Nc2ccc3c(c2)OCCO3)cc1 | · | · | · | -7 | 2 | · | 4 | -8
COc1ccccc1NS(=O)(=O)c1cccc(NC(=O)C(C)NC(=O)c2ccco2)c1 (stereo not given) | · | · | 0 | -1 | -2 | · | · | -2
O=C(O)c1ccc(/C=C2\CCCc3c2nc2ccccc2c3C(=O)O)cc1 | i | 26 | 5 | 2 | 4 | 26 | -11 | -13
O=C(Nc1nc(-c2ccco2)c(-c2ccco2)s1)c1cnccn1 | i | · | 0 | · | · | · | 16 | ·
COc1ccc(CCNC(=O)C2CCCN(S(=O)(=O)c3cc(C)ccc3OC)C2)cc1OC (stereo not given) | i | 2 | -12 | 4 | 4 | 6 | 12 | 2
O=C(CCC(=O)OCc1ccc(C(=O)Oc2ccc(Cl)cc2)cc1)Nc1ccccc1 | i | -4 | -19 | 3 | 1 | -4 | -3 | -13
O=C(NNc1cccc(Cl)n1)c1c(Cl)cccc1Cl | i | -4 | -77 | -5 | 3 | -14 | 5 | -10
COc1cccc(OCc2cc(C(=O)N(Cc3nccn3C)C(C)C)no2)c1 | i | 0 | -3 | 0 | 2 | -19 | -17 | -15
COc1ccc(Cn2nnnc2CN(Cc2cc3cc(C)ccc3[nH]c2=O)C2CCCC2)cc1 | i | 8 | · | -4 | -1 | -9 | -11 | -18
O=C(Cc1sc(-c2ccccc2Cl)nc1-c1ccccc1)Nc1ccc(F)cc1 | i | 6 | · | 0 | 0 | -4 | -3 | ·
COc1ccc2ccccc2c1-c1csc(N)n1 | i | 0 | -6 | 0 | 1 | 0 | -15 | -9
CCOC(=O)c1c(C)[nH]c(C(C)=NNC(=O)Cn2nc(C)cc2C)c1C | · | · | 3 | -1 | 2 | · | -7 | -12
CC(C)C1C(c2ccccc2)NC(c2ccccc2)CC1(O)c1ccc(F)cc1 (stereo not given) | · | 9 | -4 | -9 | -8 | -6 | 70 | 0
COc1ccc(OC)c(-n2c(=O)c3ccccc3c3ccccc3c2=O)c1 | i | -4 | 17 | -2 | -3 | 5 | -2 | -7
O=C(Nc1ccccn1)c1ccc([N+](=O)[O-])o1 | i | -4 | · | -1 | -5 | -17 | 24 | ·
CC(=O)NC(CCCNC(=S)NC1CCCCC1)C(=O)O (stereo not given) | i | 10 | 13 | 1 | 3 | 4 | -11 | ·
COc1cc(/C=N/N2CCOCC2)ccc1OC(=O)c1ccco1 | i | 25 | -18 | -2 | 2 | -6 | 1 | ·
C[C@H](CO)N1C[C@H](C)[C@@H](CN(C)C(=O)Nc2ccccc2)Oc2c(NS(=O)(=O)c3cccs3)cccc2C1=O | · | · | 16[16.7 µM] | -2 | 5 | · | -5 | -1&-8
OCC12COC(c3ccccc3)N1C(c1ccccc1)OC2 (stereo not given) | i | 7 | · | 3 | 5 | -2 | 10 | -14
Cc1oc2cc3oc(=O)c(CCC(=O)N(C)CC(=O)O)c(C)c3cc2c1C | i | -4 | 7 | 2 | 0 | 4 | -21 | -10
CCOC(=O)c1ccc(NC2OC(=O)c3ccccc32)cc1 (stereo not given) | · | 13 | · | -6 | -2 | -3 | 10 | -10
COc1ccc(CS(=O)(=O)/C(Cl)=C(/Cl)C(=O)Nc2ccc(OC)nc2)cc1 | i | -10 | · | -29 | -35 | -6 | 109* | -20
COc1ccc(NC(=O)c2ccc(NC(=O)c3ccco3)cc2)c(OC)c1 | i | 1 | 5 | 4 | 0 | 1 | -7 | -7
COc1ccc(C2=NCCc3cc(OC)c(OC)cc32)cc1OC | i | 1 | -4 | -4 | 1 | -1 | -15 | ·
N#Cc1c(NC(=O)CN2CCN(C(=O)c3ccco3)CC2)sc2c1CCCCC2 | i | -2 | 18 | -6 | -13 | 2 | 50 | -11
O=C(C1CCCO1)N1CCN(Cc2nc3ccccc3c(=O)[nH]2)CC1 (stereo not given) | i | 9 | · | -1 | 6 | -4 | · | 18
CCOC(=O)CSc1nc2c(sc(=S)n2Cc2ccco2)c(=O)n1-c1ccc(F)cc1 | i | 5 | -40 | 0 | 2 | -8 | 51 | ·
CCC(Sc1nc2n[nH]c(C)c2c(=N)n1-c1ccc(C)c(Cl)c1)C(=O)N1CCOCC1 (stereo not given) | i | 4 | · | -9 | -13 | -8 | 5 | -13
CCN(CC)CC#CC(C)(C)OC(C)=O | i | · | 12 | 3 | 0 | · | -11 | ·
O=C1CCC([N+](=O)[O-])C(c2cc3c(cc2Cl)OCO3)N1 (stereo not given) | i | -3 | -2 | -2 | 4 | -10 | 0 | ·

Of the compounds above, these have two or more sulfur atoms:
SMILES | Rce1 inh | PABP FP inh | HIV Env fusion | MT1-MMP act inh | MT1-MMP act inh RFP | eIF4H inh | CSC inhib | Yeast UUG start | others
C[C@H](CO)N1C[C@H](C)[C@@H](CN(C)C(=O)Nc2ccccc2)Oc2c(NS(=O)(=O)c3cccs3)cccc2C1=O | · | · | 16[16.7 µM] | -2 | 5 | · | -5 | -1&-8
CCOC(=O)CSc1nc2c(sc(=S)n2Cc2ccco2)c(=O)n1-c1ccc(F)cc1 | i | 5 | -40 | 0 | 2 | -8 | 51 | ·

2 neighbouring compounds already listed, for reference:
SMILES | Rce1 inh | PABP FP inh | HIV Env fusion | MT1-MMP act inh | MT1-MMP act inh RFP | eIF4H inh | CSC inhib | Yeast UUG start | others
N#CCC(=O)Nc1ccc(C(=O)OCC(=O)NC(=O)Nc2ccc3c(c2)OCCO3)cc1 | · | · | · | -7 | 2 | · | 4 | -8
COc1ccccc1NS(=O)(=O)c1cccc(NC(=O)C(C)NC(=O)c2ccco2)c1 (stereo not given) | · | · | 0 | -1 | -2 | · | · | -2

The main list resumes, repeating the 2 entries before the break.
SMILES | Rce1 inh | PABP FP inh | HIV Env fusion | MT1-MMP act inh | MT1-MMP act inh RFP | eIF4H inh | CSC inhib | Yeast UUG start | others
CCN(CC)CC#CC(C)(C)OC(C)=O | i | · | 12 | 3 | 0 | · | -11 | ·
O=C1CCC([N+](=O)[O-])C(c2cc3c(cc2Cl)OCO3)N1 (stereo not given) | i | -3 | -2 | -2 | 4 | -10 | 0 | ·
O=C1C(Cl)=C(N2CCCCCC2)C(=O)N1c1ccc(Br)cc1 | i | 4 | -5 | 0 | -1 | 19 | 3 | -7
COc1cccc(C(C(=O)NCc2ccccc2)N(C(=O)c2csnn2)C2CC2)c1 (stereo not given) | i | -1 | -16 | -2 | -1 | -3 | -3 | 6
Cc1ccccc1N(CC(=O)N/N=C/c1ccccc1Cl)C(=O)c1ccccc1 | i | 3 | -46 | 1 | 2 | 4 | -3 | -10
O=C(Nc1ccc(C(=O)N2CCOCC2)cc1)Nc1ccc(Cl)cc1Cl | i | -8 | 19 | -2 | -2 | -4 | -13 | ·
CC(C)Cn1c(N)c(C(=O)COC(=O)c2cc(-c3ccco3)nc3ccccc23)c(=O)n(C)c1=O | i | 28 | -17 | -17 | 2 | 55 | -2 | -6 | eIF4H inh retest=-18;PABP FP inh retest=-56
CCC(C)Sc1nnc(Cc2cc(=O)[nH]c(=O)[nH]2)n1-c1ccc(F)cc1 (stereo not given) | i | 10 | 8 | -9 | 5 | 14 | -1 | -16
O=C(Nc1nnc(C2CCCCC2)s1)C1CC(=O)N(c2ccc(F)cc2)C1 (stereo not given) | i | -1 | 15 | 2 | -1 | -6 | -12 | -15
Cc1cc(C)n2nc(SCC(=O)N3CCN(c4ccccc4)CC3)nc2n1 | · | · | -29 | 2 | 4 | · | 6 | ·
CCOCCCn1c(SCC(=O)NC(C)(C)C)nc2ccccc2c1=O | i | 7 | -2 | 0 | 1 | 6 | -2 | ·
COc1ccc(NC(=O)CN2CCN(c3ccc(C)cc3C)CC2)cc1 | i | 1 | -49 | -1 | 2 | -6 | -11 | -19
COc1ccccc1-n1c(-c2ccccc2)n[nH]c1=S | i | 2 | 27 | 0 | 5 | 3 | -7 | ·
Cc1ccc(C(=O)NC(=S)NNC(=O)c2ccc([N+](=O)[O-])cc2)cc1 | i | -6 | 13 | 0 | -1 | 9 | -6 | -24
COCc1nc2ccccc2n1Cc1ccccc1C | i | 1 | -16 | -1 | -2 | 13 | -11 | -6
Cc1ccc2cc(CN(CC3CCCO3)S(=O)(=O)c3ccc4c(c3)OCCO4)c(=O)[nH]c2c1C (stereo not given) | · | · | · | 6 | -4 | · | 12 | -7
COc1ccc([C@@H]2[C@@H]3C(=O)N(C(C)(C)C)C(=O)[C@@H]3[C@]3(Cc4ccc(Cl)cc4)C(=O)N(c4ccc(C)cc4)C(=O)N23)cc1 | i | · | 29 | -2 | -5 | · | -6 | -8
CCOc1ccc(OCC)c(NC(=O)CN(c2ccc(OC)cc2)S(=O)(=O)c2c(C)noc2C)c1 | i | 1 | 7 | -5 | -9 | 0 | 8 | 9
CCC1CCCCN1C(=O)CSC1=NN2CCCC(=O)N=C2S1 (stereo not given) | · | 2 | 11 | 0 | 3 | -1 | -14 | ·
CCCS(=O)(=O)c1c(S(=O)(=O)CCC)c2ccc(C(N)=O)cn2c1C(=O)OC | i | 6 | -19 | -3 | -2 | 15 | -3 | ·
CC/C(O)=C1\C(=O)CCCC1=NCCc1c(C)[nH]c2ccc(C)cc12 | i | -2 | 5 | -3 | 1 | -1 | 1 | 1
CCc1cccc(C)c1NS(=O)(=O)Cc1ccccc1 | i | -6 | -102 | -2 | 3 | -5 | -1 | -4
CCCCCCc1c(O)nc(SCCN2CCOCC2)[nH]c1=O | i | 5 | 1 | 8 | 8 | -8 | -8 | -4
COc1cccc(NC(=O)C2C3C=CC4(O3)C2C(=O)N(CCCN2CCC(C)CC2)C4C(=O)NC2CCCCC2)c1 (stereo not given) | i | -3 | 15 | 0 | 2 | 2 | -7 | -1
CCOC(=O)C1=CC[C@@H](c2ccccc2Cl)N(S(=O)(=O)c2ccc(C)cc2)[C@H]1C(=O)OCC | · | · | 26 | -5 | -9 | · | 18 | -14
CC(=O)NC(CC(=O)NC1CCCCCC1)c1ccccc1 (stereo not given) | i | 8 | -16 | -4 | -2 | 4 | -6 | -4
Cc1cccc(C(O)c2ncc(-c3cccc(C(F)(F)F)c3)[nH]2)c1C (stereo not given) | · | · | 12 | -1 | -6 | · | · | -5
CC1(C)CCc2cc(S(=O)(=O)N3CCN(S(=O)(=O)c4c(F)cccc4F)CC3)ccc2O1 | · | · | -47 | -1 | 1 | · | · | -20
CCCC(O)(c1ccc(Br)cc1)C(CN1CCOCC1)c1ccc(Cl)cc1 (stereo not given) | i | -6 | ? | -8 | -5 | -8 | 93* | 4
CCOc1ccccc1C(=O)N1CCOCC1 | i | 9 | -19 | 2 | 3 | -3 | 1 | -14

Three entries out of the list, sorted by heavy-atom count, ascending:
SMILES | Rce1 inh | PABP FP inh | HIV Env fusion | MT1-MMP act inh | MT1-MMP act inh RFP | eIF4H inh | CSC inhib | Yeast UUG start | others
CCOc1ccccc1C(=O)N1CCOCC1 | i | 9 | -19 | 2 | 3 | -3 | 1 | -14
CCOC(=O)C1=CC[C@@H](c2ccccc2Cl)N(S(=O)(=O)c2ccc(C)cc2)[C@H]1C(=O)OCC | · | · | 26 | -5 | -9 | · | 18 | -14
CCOc1ccc(OCC)c(NC(=O)CN(c2ccc(OC)cc2)S(=O)(=O)c2c(C)noc2C)c1 | i | 1 | 7 | -5 | -9 | 0 | 8 | 9

Screening results from PubChem.
